Screening results as filed in PubChem BioAssay.
SARS PLP yeast: inhibitors of SARS-CoV papain-like protease in yeast | S. cerevisiae expressing SARS-CoV PLpro, growth rescue; control for the full effect not named in the record | Potency, µM (top dose mostly 32.9 µM), inactives show at the highest dose activity, positive = growth rescue | actives 0.19% (n = 330,000); active means well fitted rising curve with a large enough effect; inconclusive means small, poorly fitted or top-dose-only effect; inactive means no such curve, though single readings can be large or run the other way; further: 0% is about no effect; nearly all actives have a fitted effect of over 55% in size; growth read by luminescence after 48 h
NS1 function inh: inhibitors of influenza NS1 protein function; S. cerevisiae slowed by influenza A NS1, growth recovery by OD600; Potency, µM (highest dose often 46.1 µM), without a hit: top-dose activity, positive = more growth; actives 0.4% (n = 270,000); active means well fitted rising curve with a large enough effect; inconclusive means small, poorly fitted or top-dose-only effect; inactive means no such curve, though single readings can be large or run the other way; further: nearly all actives have a fitted effect of over 50% in size
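A cell-based growth assay was used: compounds that relieve NS1-induced slow growth of budding yeast raise OD600. Assay medium was yeast nitrogen base with ammonium sulphate and -URA supplement, pH 6.0, with 2% galactose.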
Lassa entry inh: Lassa virus entry inhibition; actives 1.2% (n = 300,000); Potency, µM (top dose mostly 37.9 µM), for the others: top-dose activity change, negative = inhibition, usual class: inhibitors; Lassa virus pseudotype entry inhibition, cell reporter; control for the full effect not named in the record; active means well fitted inhibition curve with a large enough effect; inconclusive means small, poorly fitted or top-dose-only effect, or effect the other way; inactive means flat fitted curve, though single readings scatter; tested in HEK293 cells; further: on the % scale 0 is the no-effect control and ±100 the full control effect; nearly all actives have a fitted effect of over 50% in size; luciferase read-out
Marburg entry inh: inhibitors of Marburg virus binding or cell entry. Marburg virus pseudotyped entry inhibition, cell reporter; control for the full effect not named in the record; about a third of the inactives were read at about 46 µM. Potency, µM (series often up to 37.8 µM), without a hit: at the top dose activity change, negative = inhibition, most hits filed as inhibitors. actives 1.8% (n = 300,000); active = well fitted inhibition curve with a large enough effect; inconclusive = small, poorly fitted or top-dose-only effect, or effect the other way; inactive = flat fitted curve, though single readings scatter; tested in HEK293 cells; about a fifth of its hits are not listed in these tables; further: on the % scale 0 is the no-effect control and ±100 the full control effect; luciferase read-out
StopGo reporter: FMDV 2A StopGo reporter, luciferase signal. AID 1159524. actives 1.2% (n = 410,000). Potency, µM (top dose mostly 57.9 µM), without a hit: at the top dose signal change, negative = less light. human cells with a luciferase reporter of 2A StopGo recoding; control for the full effect not named in the record; active = well fitted falling curve with a large enough effect; inconclusive = small, poorly fitted or top-dose-only effect; inactive = no such curve, though single readings can be large or run the other way; tested in HEK293T cells; further: on the % scale 0 is the no-effect control and ±100 the full control effect; nearly all actives have a fitted effect of over 45% in size; luciferase light after 4 h
Cruzain noTriton: blocks cruzain activity in detergent-free assay; purified cruzain, Z-FR-AMC fluorescence, no detergent; actives 2.3% (n = 200,000); Potency, µM, without a hit: max response, negative = inhibition, hits mostly inhibitors;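 further: plate controls were enzyme without inhibitor for no effect and buffer without enzyme for full effect; nearly all actives have a fitted effect of over 40% in size; top concentration of the series not given in the record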
Target sequence (P25779 123-467 limits assumed): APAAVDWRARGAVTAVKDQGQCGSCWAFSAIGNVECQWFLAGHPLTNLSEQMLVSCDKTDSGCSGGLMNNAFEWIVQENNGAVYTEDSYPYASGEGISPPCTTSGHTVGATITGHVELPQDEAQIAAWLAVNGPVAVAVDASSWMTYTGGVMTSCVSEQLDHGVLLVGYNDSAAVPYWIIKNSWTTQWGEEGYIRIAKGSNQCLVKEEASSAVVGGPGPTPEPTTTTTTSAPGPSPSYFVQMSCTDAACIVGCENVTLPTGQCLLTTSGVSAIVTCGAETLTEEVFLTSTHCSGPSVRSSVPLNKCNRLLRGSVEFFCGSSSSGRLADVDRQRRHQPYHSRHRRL
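Purified cruzain at 1.5 nM, pre-incubated 15 min with compound at room temperature in 100 mM sodium acetate pH 5.5, 5 mM DTT, 0.00005% Triton X-100. Reaction started with 2 uM Z-FR-AMC; AMC fluorescence increase over 60 s gives rate.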
Cruzain Triton: inhibitors of Trypanosoma cruzi cruzain with detergent. actives 0.43% (n = 200,000). P25779. AID 1478. purified cruzain, Z-FR-AMC fluorescence, 0.01% Triton. Potency, µM, for the others: max response, negative = inhibition, hits mostly inhibitors;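 further: plate controls were neutral wells for no effect and buffer without enzyme for full effect; nearly all actives have a fitted effect of over 40% in size; top concentration of the series not given in the record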
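Detergent-containing arm of a paired screen for aggregation-based inhibition: 0.01% Triton X-100 present. Cruzain at 1.5 nM cleaved 2 uM Z-FR-AMC at pH 5.5 with 5 mM DTT; AMC fluorescence gain over 60 s measured activity.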
RE007 growth inh: less growth of the S. pombe RE007 Vpr strain; S. pombe RE007 Vpr strain, BacTiter-Glo ATP luminescence, 24 h; control for the full effect not named in the record; Potency, µM (doses to about 92.2 µM), without a hit: top-dose activity change, negative = less growth; actives 0.21% (n = 360,000); active = well fitted falling curve with a large enough effect; inconclusive = small, poorly fitted or top-dose-only effect; inactive = no such curve, though single readings can be large or run the other way;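 further: on the % scale 0 is the no-effect control and ±100 the full control effect; nearly all actives have a fitted effect of over 50% in size; the assay follows cell death caused by Vpr and the record does not say whether a fall means rescue or toxicity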
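Fission yeast strain RE007, carrying one chromosomally integrated HIV-1 vpr copy, was seeded at OD 0.01 in PMG+AL medium with 23 nL pinned compound. After 24 h at 30 °C and 99% humidity, viability was read by BacTiter-Glo luminescence.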
Active calls of the source: *; u = inconclusive; x = not tested or not shown; & = joins results of further samples; [ ] = another dose, or the depositor's remark. Unless noted, the call rests on the fitted dose curve; in most records, active means well fitted curve in the direction sought with a large enough effect; inconclusive means small, poorly fitted or top-dose-only effect, or another doubt; inactive means no such curve, though single readings can be large; an effect the other way counts as inactive or inconclusive. Potency means the concentration at half of the fitted maximal effect.

SMILES	SARS PLP yeast	NS1 function inh	Lassa entry inh	Marburg entry inh	StopGo reporter	Cruzain noTriton	Cruzain Triton	RE007 growth inh
Cc1cccc(NS(=O)(=O)c2c(C)n[nH]c2C)c1	-7%	10%	9%	11%	x	3%	-0.1%	-22%
Cc1ccc(C)c(S(=O)(=O)N2CCCOC2CNC(=O)C(=O)NCCCn2ccnc2)c1 (stereo not given)	16%	-3%	15%	4%	-7%	0%	4.0%	7%
Cc1ccsc1C(=O)N/N=C/c1ccc([N+](=O)[O-])cc1	-3%	-11%	u	u	52%	u	0.5%	-4%
Cc1ccc2c(c1)cc1c(=O)[nH]ncn12	2%	-11%	-2%	2%	17%	-8%	2.6%	-23%
CCOc1ccc(NC2=NC(C(=O)NCc3ccccc3)CC(=O)N2)cc1 (stereo not given)	-1%	1%	-8%	10%[46.1 µM]	-17%	2%	1.0%	-3%
CCOC(=O)c1c(NC(=O)COC(=O)CCOc2cc(C)ccc2C)sc(C(=O)N(C)C)c1C	x	x	-5%	-1%	0%	x	x	0%
CC(C)C(OC(=O)c1cccs1)C(=O)NCc1ccc2c(c1)OCO2 (stereo not given)	0%	0%	x	x	11%	x	x	4%
CC(=O)Nc1ccc(S(=O)(=O)N(C)CC(=O)NCCC2=CCCCC2)cc1	x	3%	-4%[46.1 µM]	2%[46.1 µM]	-20%	x	x	-11%
CCOC(=O)c1c(C)oc2c1c(C(c1ccccc1)N1CCOCC1)c(O)c1ccccc12 (stereo not given)	-20%	2%	23µM*	u	74%[activator]	-1%	-5.5%	u
COc1ccc(C(=O)NCC(c2ccc(N(C)C)cc2)N2CCOCC2)cc1 (stereo not given)	x	x	3%[46.1 µM]	x	4%	-8%	-8.9%	x
CCOCC(=O)Nc1ccccc1C(=O)O	0%	4%	11%	u	5%	x	x	5%
Cc1scc(C(=O)N/N=C/c2ccco2)c1C	11%	-3%	-2%	4%	44%[activator]	-8%	-4.5%	22%
CC1=Nc2ccccc2/C1=C/c1sc(=S)n(-c2cccc(C(=O)O)c2)c1O	-1%	2%	u	-3%[46.1 µM]	-7%	x	x	34%
COc1ccccc1NS(=O)(=O)c1cc(C(=O)NCc2ccncc2)ccc1C	10%	x	u	-1%	28%	x	x	-5%
CN(C)C(=O)N(CCCN1CCOCC1)Cc1cccc2ccccc12	-1%	3%	5%	8%	-3%	x	x	-20%
CC(C)(C)NS(=O)(=O)c1ccc2nc(NC(=O)c3ccc(N4C(=O)CCC4=O)cc3)sc2c1	2%	x	-6%	-31%	71%[activator]	x	x	14%
O=C(CN1CCN(C(=O)c2cncn2-c2ccccc2)CC1)Nc1ccccc1Cl	-3%	x	2%	-1%	-14%	x	x	2%
CCN(CC(=O)Nc1ccc2c(c1)OCCO2)S(=O)(=O)c1ccccc1	-3%	-5%	u	u	37%[activator]	x	x	3%
CCc1ccccc1NC1Nc2cc(C)nn2S1 (stereo not given)	-3%	x	1%	-1%[46.1 µM]	7%	x	x	33%
S=C(NC1CCCCC1)N1CCc2ccccc2C1	-42%	-21%	4%	u	16%	3%	-0.5%	u
O=C(N/N=C/c1cc(Br)c(Br)o1)C(O)c1ccccc1 (stereo not given)	13%	-7%	0%	-7%[46.1 µM]	25%	7%	-5.4%	-8%
Cc1ccc(C(=O)NCC(c2ccco2)N2CCc3ccccc32)cc1C (stereo not given)	-14%	x	u	u	-21%	x	x	10%
C=CCn1c(-c2ccc(S(=O)(=O)N3CCOCC3)cc2)csc1=Nc1ccccc1	-4%	9%	u	-29%	u	26%	-1.3%	-3%
COCCNC(C)C(=O)C12CC3CC(CC(C3)C1)C2 (stereo not given)	2%	-5%	10%	25%	x	3%	-6.8%	12%
O=C(O)c1ccc(S(=O)(=O)c2ccc3c(c2)C(=O)N(CC2CCCO2)C3=O)cc1 (stereo not given)	6%	-4%	10%	u	-4%	-3%	1.7%	6%
Cc1ccc(N2CCN(c3ncccc3[N+](=O)[O-])CC2)c(C)c1	-6%	-5%	u	u	-16%	x	x	13%
CN(C)CCCNC(=O)c1ccc(/C=N/O)nc1	-1%	-10%	2%[46.1 µM]	4%	-6%	x	x	22%
COc1ccc(Cn2c(N)c(C#N)c3nc4ccccc4nc32)cc1	-1%	2%	-1%	-1%	-3%	-8%	-27%	-4%
Cn1c2c(c3ccccc31)CCN1CCC[C@]21c1ccccc1	0%	-1%	x	x	u	x	x	-5%
CC(C)(C)NC(=O)CCCSc1nc2ccccc2s1	-1%	-4%	-12%	u	7%	x	x	-16%
CN(Cc1ccccc1)c1ccc(-c2nc(-c3ccccn3)no2)cc1[N+](=O)[O-]	x	x	-5%[46.1 µM]	11%[46.1 µM]	5%	12%	-0.2%	x
CCC1(Cc2ccccc2)C(=O)NC(=S)N(C)C1=O (stereo not given)	x	x	2%	-6%	-12%	x	x	14%
COc1ccc(N2C(=O)CC(NCc3cccs3)C2=O)cc1 (stereo not given)	-1%	1%	-4%	-2%	11%	-5%	3.3%	-18%
O=C(NC(=S)Nc1ccccc1N1CCCCC1)c1ccc(F)cc1	2%	0%	u	u	u	x	x	0%
COc1ccccc1NS(=O)(=O)c1ccc2c(c1)NC(=O)C(C)S2 (stereo not given)	4%	12%	x	x	-18%	x	x	8%
NC(=O)CSc1nnc(NC(=O)C23CC4CC(CC(C4)C2)C3)s1	10%	11%	x	x	18%	x	x	-2%
COc1ccc2cc(C3(C)NC(=O)N(CC(=O)Nc4c(C)n(C)n(-c5ccccc5)c4=O)C3=O)ccc2c1 (stereo not given)	3%	-15%	0%	-1%	-7%	13%	-3.7%	1%
Cc1cc(NC(=O)c2ccc3c(c2)OCO3)ccc1NC(=O)c1ccccc1	-1%	5%	8%[46.1 µM]	u	7.9e-05µM*	x	x	9%
Cc1ccc(NC(=O)C(=O)NCc2ccc(Cl)cc2)cc1	x	x	-2%[46.1 µM]	x	-3%	u	-1.3%	x
CN(CCCNC(=O)c1cccc(N2CCCC2=O)c1)c1ccccc1	11%	-19%	5%	-13%	-20%	7%	-5.5%	-5%
CCc1cccc2c(C(=O)CSc3nncn3-c3ccccc3OC)c[nH]c12	13µM*	9%	5%	4%	0%	-12%	-5.4%	4%
CCCCNC(=S)N/N=C1\CCCCc2ccccc21	-40%	-30%	u	-4%	-7%	-19%	-4.8%	-28%
Cc1cc(C)c(NC(=O)C2=COCCO2)c(C)c1	-1%	x	0%	15%[46.1 µM]	11%	x	x	9%
O=C(NCCS(=O)(=O)N1CCN(c2ccc(F)cc2)CC1)C12CC3CC(CC(C3)C1)C2	x	x	-29%	u	u	x	x	-6%
CC(=O)N/N=C/c1cc(C)n(-c2ccc(Br)cc2)c1C	18%	-27%	-19%	u	-14%	0%	-3.6%	-9%
O=C(COc1cccnc1[N+](=O)[O-])NC1CCS(=O)(=O)C1 (stereo not given)	6%	27%	1%	u	-16%	7%	-1.3%	-5%
Cc1c(C(=O)N2CCCCC2)sc(NC(=O)C23CC4CC(CC(C4)C2)C3)c1C#N	x	x	7%	-3%	-6%	x	x	6%
COc1cccc(CNC(=O)c2cc(-c3cccs3)nc3ccccc23)c1	x	x	-9%[46.1 µM]	-12%[46.1 µM]	-19%	10%	-5.6%	x

Two entries from above in another layout:
SMILES,SARS PLP yeast,NS1 function inh,Lassa entry inh,Marburg entry inh,StopGo reporter,Cruzain noTriton,Cruzain Triton,RE007 growth inh
O=C(NCCS(=O)(=O)N1CCN(c2ccc(F)cc2)CC1)C12CC3CC(CC(C3)C1)C2,x,x,-29%,u,u,x,x,-6%
CC(=O)N/N=C/c1cc(C)n(-c2ccc(Br)cc2)c1C,18%,-27%,-19%,u,-14%,0%,-3.6%,-9%

Next records follow:
SMILES	SARS PLP yeast	NS1 function inh	Lassa entry inh	Marburg entry inh	StopGo reporter	Cruzain noTriton	Cruzain Triton	RE007 growth inh
COc1ccc(C2CC(c3cccs3)=NN2C(=O)COC(=O)c2cc3ccccc3cc2O)cc1OC (stereo not given)	-5%	24%	-9%	u	-4%	13µM*	-2.5%	0%
CCOC(=O)c1sc(C)c2c1NC(c1ccc(Cl)cc1)NC2=O (stereo not given)	7%	1%	0%	-6%[46.1 µM]	-11%	u	2.1%	15%
Cc1csc(NC(=O)CCNS(=O)(=O)c2ccc3c(c2)c(=O)n(C)c(=O)n3C)n1	6%	4%	-15%[14.3 µM]	-2%&-2%	14%	-4%	1.7%	9%
COC(=O)CCCC1=CC2=C(c3ccccc3)C(=O)C(C)(OC(=O)C3CCCC3)C(=O)C2=CN1C(CO)CO (stereo not given)	-4%	4%	x	17%&17%[14.2 µM]	-6%	x	x	10%
Cc1ccccc1-c1noc(CCC(=O)NC2CCCCC2)n1	-5%	-16%	6%[46.1 µM]	-7%[46.1 µM]	28%	x	x	-1%
COc1ccccc1CN1COc2ccc3c(oc(=O)c4ccccc43)c2C1	x	x	-28%[46.1 µM]	u	-15%	-5%	0.7%	x
Cc1ccc(C(=O)CSc2nnc(C(C)C)n2C)cc1C	0%	1%	2%	u	61%[activator]	x	x	21%
CC1CNC(=S)N(c2ccc(F)cc2)C1=O (stereo not given)	x	x	4%	8%	-15%	x	x	15%
CC(C)N=C(NC#N)SCc1ccccc1F	1%	-7%	2%	3%	-8%	5%	1.5%	-4%
COc1ccc(NC(=O)C(NC(C)=O)C(=O)NCc2ccc(F)cc2)cc1 (stereo not given)	1%	7%	-27%	-3%	-14%	9%	3.1%	-10%
Cc1ccc(-n2ncc3c(N4CCN(c5ccc(F)cc5)CC4)ncnc32)cc1	x	x	11%[46.1 µM]	x	u	0%	0.0%	x
N#C/C(=C\c1ccc(-c2ccccc2)o1)C(=O)Nn1cnnc1	4%	15%	2%	u	-15%	-2%	-5.6%	0%
Cc1nc2c(C)cccn2c1/C(O)=C1\C(=O)C(=O)N(CCN2CCOCC2)C1c1cccs1 (stereo not given)	-1%	-8%	4%	20%	-21%	0%	-0.7%	1%
O=C(c1cc(-c2cccc(O)c2)on1)N1CCCCC1	2%	-35%	x	x	30%	-4%	-1.5%	-13%
